# miR-21 reporter – miR-21 reporter, rising signal | HeLa miR-21 FLuc reporter, luciferase, 48 h | Potency, µM (titrated, usually from 38.3 µM), without a hit: at the highest dose reporter change, positive = more light | 340,000 tested, under 10 active; active = well fitted rising curve with a large enough effect; inconclusive = small, poorly fitted or top-dose-only effect; inactive = no such curve, though single readings can be large or run the other way;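 further: % of control where 0% means no effect; miR-21 action dims this reporter so a rising signal means less miR-21 action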
#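 Luminescence from a firefly luciferase reporter carrying a miR-21 binding site downstream, stably expressed under a CMV promoter in HeLa cells that make miR-21 endogenously, reports miRNA modulation after 48 h compound exposure up to approximately 40uM final.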
# Rango release inh – inhibition of RanGTP-driven Rango-importin beta dissociation | Biochemical FRET Rango-importin beta, RanGTP-induced dissociation | Potency, µM (titrated, usually from 46.1 µM), for inactives: at the highest dose activity change, negative = inhibition | 0.071% of 340,000 active | O95149+P62826 | AID 540253; active means falling FRET ratio curve, often poorly fitted, with flat reads before Ran was added; inconclusive means other falling curves, or compound fluorescence or quenching; inactive means flat or rising ratio curve;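 further: potency means the concentration at half of the fitted maximal effect; % of control where 0% means no effect; nearly all actives have a fitted effect of over 45% in size; -100% = wells without RanGTP and RCC1; the record marks most hits as doubtful in a second field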
#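 Compounds preincubate 5 min with complex of recombinant Rango and importin beta in PBS with 1 mM DTT. Ran (0.6 uM) loaded with 2 mM GTP plus 0.2 uM RCC1 starts dissociation; FRET is recorded 45 min later.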
# Rango complex inh – inhibitors of Rango-importin beta complex formation; Rango CFP/YFP FRET sensor + importin beta, 45 min; 0.031% of 340,000 active; AID 540263; Potency, µM (top dose mostly 92.2 µM), for the others: at the highest dose inhibition of complex formation; active = rising FRET ratio curve, often small or poorly fitted; inconclusive = mostly compound fluorescence or quenching in the first reads; inactive = flat curves in all reads;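 further: potency means the concentration at half of the fitted maximal effect; 0% = DMSO wells and 100% = buffer wells lacking importin beta; nearly all actives have a fitted effect of over 15% in size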
#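 FRET biosensor (snurportin 1 IBB flanked by EYFP and cerulean), 50 nM, with compound 5 min, then 0.125 microM importin beta in PBS, 1 mM DTT, 0.02% Tween-20, 0.1% BSA. CFP/YFP ratio read after 45 min at room temperature; pre-read flags interference.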
# GLA inh pH 4.5 – inhibitors of human alpha-galactosidase A at pH 4.5; P06280; purified enzyme, 4-MU-alpha-Gal fluorescence, pH 4.5; activity change, negative = inhibition, % at 105 µM; 230,000 tested, under 10 active; inconclusive = small, poorly fitted or top-dose-only inhibition, or a rising curve; inactive = flat fitted curve, though single readings scatter; no compound was filed as active;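 further: 0% = full activity with enzyme and -100% = basal without enzyme; dose as in the result columns while the protocol names 77 µM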
# Target sequence (P06280 whole entry, looked up): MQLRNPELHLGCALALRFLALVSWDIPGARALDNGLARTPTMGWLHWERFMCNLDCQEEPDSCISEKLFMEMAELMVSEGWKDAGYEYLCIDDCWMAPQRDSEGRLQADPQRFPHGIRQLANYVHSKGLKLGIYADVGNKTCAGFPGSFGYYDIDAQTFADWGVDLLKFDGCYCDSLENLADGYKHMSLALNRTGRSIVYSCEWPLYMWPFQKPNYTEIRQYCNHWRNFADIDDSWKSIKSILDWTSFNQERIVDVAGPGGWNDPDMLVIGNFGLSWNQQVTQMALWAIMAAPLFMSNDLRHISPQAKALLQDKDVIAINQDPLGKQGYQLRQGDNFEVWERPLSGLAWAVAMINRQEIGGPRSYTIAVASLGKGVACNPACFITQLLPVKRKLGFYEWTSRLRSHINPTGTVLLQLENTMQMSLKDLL
# An asterisk follows results filed as active; ? = inconclusive; · = no result given; & = joins results of further samples; [ ] = another dose, or the depositor's remark.
SMILES,miR-21 reporter,Rango release inh,Rango complex inh,GLA inh pH 4.5
CCOc1ccc(C(=O)NC2CC(=O)N(c3ccc4c(c3)OCCO4)C2)cc1 (stereo unspecified),·,4.7%,-1.5%,·
O=[N+]([O-])c1ccc(OCCN2CCCCCC2)cc1,-2.8%,-0.3%,0.1%,-3.7
CCOC(=O)C(=CNc1cc(C(F)(F)F)ccc1N1CCOCC1)C(=O)OCC,-11.6%,-5.1%,-1.7%,-13.4
Cn1c(SCc2nc3ccccc3[nH]2)nnc1-c1cnccn1,-14.5%,2.7%,2.1%,-1.4
CC(=O)N1N=C(c2ccc(Cl)cc2)OC12CCCC2,-11.6%,-16.5%,1.1%,-0.7
COc1ccc(-c2c(C)nc(N)nc2-c2ccc(OC)cc2O)cc1,-5.4%,-23.6%,?,·
Cc1cc(Cl)ccc1OCC(O)CN1C(C)CCCC1C (stereo unspecified),-16.4%,·,·,-8.4
Cc1ccc(/C=N/NC(=O)c2nnn(-c3nonc3N)c2CSc2ccc(Cl)cc2)o1,0.4%,0.1%,0.2%,·
CCCCCCc1cc2cc(-c3nnc(-c4cc(OC)c(OC)c(OC)c4)o3)c(=O)oc2cc1O,-1.5%,?,?,0.2
Cc1cc(C)n(C(=O)CCCn2nc(C)c([N+](=O)[O-])c2C)n1,-3.4%,8.0%,?,2.7
COc1ccc(C(CCN2CCN(c3ccccc3)CC2)c2c(O)cc(OC)cc2OC)cc1 (stereo unspecified),4.3%,-3.9%,0.2%,-2.2
CCc1ccc2oc(C(=O)Nc3ccc(S(N)(=O)=O)cc3)c(C)c2c1,-1.4%,0.6%,-0.2%,1.0
COc1cccc(N2CCN(S(=O)(=O)c3cccc4cccnc34)CC2)c1,5.5%,-18.3%,-1.3%,?
COc1ccc(C2Nc3ccccc3C(=O)N2Cc2ccco2)cc1CN1C(=O)c2ccccc2C1=O (stereo unspecified),-8.2%&-1.5%,-9.8%&0.3%,2.9%&6.5%,-13.8&6.3
COc1cc(/C=N/Nc2nc(Nc3ccccc3)nc(-n3nc(C)cc3C)n2)cc(OC)c1OC,18.2%,-13.5%,1.7%,-6.6
CC(Nc1nc2ncn(Cc3ccccc3)c2c(=O)[nH]1)C(=O)O (stereo unspecified),-0.8%,14.7%,-5.2%,1.3
CC(C)CN(C(=O)Cn1nnc(-c2ccc(F)cc2)n1)C1CCS(=O)(=O)C1 (stereo unspecified),·,-6.1%,-0.5%,·
Cc1ccccc1CSCC(=O)N1CCN(c2ccccc2)CC1,-52.5%,10.7%,-2.6%,-14.2
COc1cccc(CNC(=O)C2CCN(S(=O)(=O)c3ccc(-n4cnnn4)cc3)CC2)c1,4.4%,2.8%,-1.8%,·
COCc1cc(C)nc(OCC(=O)N/N=C/c2ccccc2O)c1C#N,11.4%,-10.4%,-1.4%,0.2
Cc1cc(Cl)ccc1OCC(=O)N1CCCN(C(=O)COc2ccc(Cl)cc2C)CC1,10.0%,-6.8%,?,?
CCC(C)(C)NC(=O)C(c1ccc(OC)cc1)N(CC1CCCO1)C(=O)CCC(=O)Nc1cc(C)on1 (stereo unspecified),-1.6%,4.6%,1.2%,-8.6
COC(=O)c1ccccc1NC(=S)N1CCN(C2CCCCC2)CC1,-10.6%,7.9%,-0.1%,4.7
O=C(CCCc1ccncc1)c1ccccc1,·,-7.6%,-0.3%,·
c1ccc2ccccc2c1,·,-3.3%,-0.8%,·
CCOc1ccc(NC(=O)N2CCN(CC)CC2)cc1,-10.1%,-7.6%,1.5%,1.8
Cc1ccccc1Nc1nc(N)nc(CSc2nnnn2C)n1,-42.1%,5.5%,-1.4%,-8.1
COCCn1c(SCC(=O)N2CCCC(C)C2)nnc1-c1ccco1 (stereo unspecified),0.4%,0.0%,-3.7%,·
CN(Cc1ccccc1)C(=O)CN(C)S(=O)(=O)c1ccc(F)cc1,-11.5%,6.3%,4.7%,·
CC(C)c1ccc(OCC(=O)NCc2n[nH]c(=O)c3ccccc23)cc1,·,-11.2%,5.0%,·
COc1ccc(S(=O)(=O)N2CCN(C(=O)CNC(=O)c3ccc4c(c3)OCO4)CC2)cc1,·,21.0%,0.1%,·
CSc1cccc(NC(=O)/C=C/c2cccc(Cl)c2)c1,3.6%,8.1%,-4.0%,-11.2
CNS(=O)(=O)c1cccc(C(=O)OCCCOC(=O)c2cccc(S(=O)(=O)NC)c2)c1,-4.5%,9.5%,3.3%,·
CN(C(=O)COC(=O)c1ccc(S(=O)(=O)N2CCOCC2)cc1)C1CCCCC1,-1.3%,-8.2%,-1.1%,-0.1
O=C(NCCCN1CCCC1=O)C(=O)NCC1OCCN1S(=O)(=O)c1ccc(Br)cc1 (stereo unspecified),-2.4%,6.6%,0.5%,·
COc1ccccc1NS(=O)(=O)c1cc(C(=O)N2CCN(C(=O)c3ccco3)CC2)ccc1F,·,-0.4%,-1.7%,·
CC(C)c1nnc(NC(=O)CCC(=O)N2CCN(c3cccc(Cl)c3)CC2)s1,0.2%,14.4%,2.5%,·
Cc1cccc(NC(=O)CNC(=O)c2ccc3nc[nH]c3c2)c1C,·,4.7%,2.9%,·
O=C(COC(=O)C1=NN(c2ccccc2)C(=O)CC1)Nc1nc(-c2ccc(F)cc2)cs1,·,9.9%,0.2%,·
CC(=O)N(C)c1ccc(NC(=O)N2CCOCC2)cc1,-3.6%,-10.1%,-2.7%,·
CN(C(=O)c1ccc2c(c1)OCCO2)c1c(N)n(Cc2ccccc2)c(=O)[nH]c1=O,·,11.8%,-0.8%,·
CC(C)(CC(=O)c1ccccc1)CC(=O)c1ccccc1,·,11.5%,3.7%,·
CCn1c(=O)c(=O)[nH]c2cc(C(=O)NCc3ccc(F)cc3)ccc21,-5.0%,-10.7%,5.3%,·
CC1CCCCC1NC(=O)CCn1c(=O)oc2ccccc21 (stereo unspecified),-3.5%,-7.2%,?,2.7
Cc1cccc(OCC(=O)Nc2ccccc2N2CCCCC2)c1C,·,6.7%,0.0%,·
CC(Sc1ccc2c(c1)OCCO2)C(=O)Nc1ccc2c(c1)OCO2 (stereo unspecified),-10.1%,-1.3%,-0.8%,5.4
COc1cc(C(=S)N2CCOCC2)cc(OC)c1O,2.0%,-11.8%,-3.2%,-18.9
COc1ccc(NC(=O)C2CCCN(c3nn4c(=O)cc(C)nc4s3)C2)cc1 (stereo unspecified),-2.2%,1.6%,-1.7%,·
O=C(NNC(=O)c1cccc2ccccc12)c1cccc(Cl)c1,·,-3.0%,0.0%,·
CCOC(=O)c1c(NC(=O)CSc2nnc(-c3c[nH]c4ccccc34)n2CCOC)sc2c1CCCC2,24.7%,1.9%,-1.3%,-5.6
CCOC(=O)NC(=O)CSc1nnc(SCCC(=O)O)s1,2.1%,1.4%,3.9%,3.3
CCOc1ccc(-c2cc(N)n(S(=O)(=O)c3cccc4nsnc34)n2)cc1,-7.9%,-16.7%,3.7%,-14.7
Cc1cc(C)c(S(=O)(=O)N2CCN(C(=O)CN3C(=O)NC4(CCCC4)C3=O)CC2)c(C)c1,-0.6%,4.7%,2.8%,·
Cc1ccc(NC(=O)COC(=O)Cn2cnc3c2c(=O)n(C)c(=O)n3C)c(Cl)c1,1.2%,-8.4%,0.0%,2.8
O=S(=O)(c1ccccc1)c1nc(-c2ccco2)oc1N1CCCCCC1,-11.8%,-15.7%,-1.4%,-9.8
CN1CCc2c(sc(NC(=O)C3CCCN3S(=O)(=O)c3ccc(Cl)s3)c2C(N)=O)C1 (stereo unspecified),·,?,?,·
O=C(NNC(=O)c1ccc(Br)s1)c1cccc(S(=O)(=O)N2CCCC2)c1,·,-16.6%,-0.4%,·
Cc1nc(C)c(CC(=O)N2CCc3c([nH]c4ccccc34)C2c2ccccn2)s1 (stereo unspecified),-0.7%,?,?,-7.9
CN(C(=O)COC(=O)C1c2ccccc2Oc2ccccc21)C1CCS(=O)(=O)C1 (stereo unspecified),-2.2%,7.4%,1.8%,-4.8
Nc1nc(Cl)cc(NCCc2ccc(O)cc2)n1,-20.0%,2.0%,-2.8%,9.3

# Later entries.
SMILES,miR-21 reporter,Rango release inh,Rango complex inh,GLA inh pH 4.5
CC12CCC(C(=O)N(c3nccs3)C1=O)C2(C)C (stereo unspecified),·,16.9%,1.4%,·
CCC1=NN=C(c2ccc(F)cc2)C(c2c[nH]c3ccccc23)N1O (stereo unspecified),-52.4%,-1.1%,-1.8%,-0.4
O=C1NCCc2cc3c(cc21)OCO3,-5.7%,-3.5%,0.1%,-8.5
CC1=Nc2ccccc2N=C(NC(=O)CN2CCN(c3ccccc3)CC2)C1c1ccccc1 (stereo unspecified),-0.4%,0.9%,-0.4%,-8.9
Cc1ccc(NC(=O)CN2C(=O)c3ccccc3S2(=O)=O)cc1C,-0.4%,-9.0%,-8.8%,·
O=C(CCC(=O)Nc1ccc(Cl)cc1Cl)NNC(=O)Nc1ccccc1,-0.7%,?,0.8%,-12.6
CC(C)c1ccc2[nH]c(O)c(N=NC(=S)NCCc3ccccc3)c2c1,29.2%,-1.1%,-1.5%,-5.1
CC1CN=C(Nc2cccc(S(=O)(=O)N(C)C)c2)S1 (stereo unspecified),-11.7%,5.3%,-0.3%,3.8
Cc1ccc(-c2[nH]c3cc(C(=O)NCCCn4ccnc4)ccc3c(=O)c2O)cc1,-1.8%,?,?,-9.8
C[C@@H](N)C(=O)NC[C@H]1O[C@@H](n2cnc3c(N)ncnc32)[C@H](O)[C@@H]1O,·,-5.9%,-1.1%,·
CCc1nc(SCC(=O)c2c[nH]c3ccccc23)n[nH]1,-13.6%,-3.9%,7.7%,-12.5
COc1ccc(Nc2ccnc3ccccc23)cc1,21.2%,22.5%,1.8%,-6.3
Cc1cc(C)c2c(c1)CC(C)(C)CC2=O,·,-7.3%,0.9%,·
O=C(O)c1cccc(Oc2ccccc2[N+](=O)[O-])c1,-11.7%,15.6%,1.5%,-2.8
COc1ccccc1OCc1cc(C(=O)N(C)CCC2CCCCO2)no1 (stereo unspecified),-55.0%,0.1%,3.5%,·
CCOC(=O)N1CCN(S(=O)(=O)c2ccc(C)c(C(=O)NC3CCCCC3)c2)CC1,-3.7%,-0.1%,-0.5%,·
CCOC(=O)c1cccc(NS(=O)(=O)c2cnc[nH]2)c1,-3.4%,3.1%,-2.3%,-0.8
Cc1ccc2nsnc2c1NS(=O)(=O)c1c(C)ccc2nsnc12,-20.6%,23.3%,1.6%,3.9
CCCCOc1ccc(CON(C(C)=O)C(C)=O)cc1Cl,-5.8%,-5.1%,-1.0%,1.8
CCOC(=O)N1CCN(Cc2nc(-c3ccc(OC)cc3)no2)CC1,·,-7.9%,3.8%,·
COC(=O)[C@@]12CCCCN1[C@H](c1ccc(-c3ccccc3)c(OC)c1)[C@H]1C(=O)N(C)C(=O)[C@H]12,·,3.6%,-4.2%,·
CC(C)N(C(=O)NC(=O)Nc1ccccn1)S(C)(=O)=O,-24.0%,10.1%,?,-2.5
COc1ccc(CNC(=O)N[C@@H](Cc2c[nH]c3ccccc23)C(=O)O)cc1,2.1%,-18.3%,-0.5%,·
COc1ccccc1Cn1c(=S)[nH]c2ccccc2c1=O,0.9%,-4.7%,0.8%,·
Cc1cc(C)c(OCC(=O)Nc2nc(-c3ccccn3)cs2)c(C)c1,6.6%,-2.1%,-2.0%,2.9[21.1 µM]
CCOc1cc(S(=O)(=O)NCc2ccccc2)c(OCC)cc1-n1cnnn1,·,-5.9%,0.8%,·

# In a second layout: results already given.
structure	miR-21 reporter	Rango release inh	Rango complex inh	GLA inh pH 4.5
CC(C)N(C(=O)NC(=O)Nc1ccccn1)S(C)(=O)=O	-24.0%	10.1%	?	-2.5
CCCCOc1ccc(CON(C(C)=O)C(C)=O)cc1Cl	-5.8%	-5.1%	-1.0%	1.8
Cc1ccc2nsnc2c1NS(=O)(=O)c1c(C)ccc2nsnc12	-20.6%	23.3%	1.6%	3.9
Cc1cc(C)c2c(c1)CC(C)(C)CC2=O	·	-7.3%	0.9%	·

# High-throughput results deposited in PubChem BioAssay by National Center for Advancing Translational Sciences (NCATS).

# Not all compounds are listed (hit frequency here may not be typical).
